Assay outcomes: PubChem, several laboratories
HIV Env fusion – inhibitors of HIV-1 Env-driven cell-cell fusion, primary screen, HeLa-JRFL effector, CEM21 target cells, luciferase; inhibition, % at 12.3 µM; 360,000 tested, 1.1% active; AID 651610, 2012;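 active means mean replicate inhibition score of at least 50 and every replicate individually at or above 50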;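 further: 0% = plate neutral controls and 100% = maraviroc near 300 nM; one replicate is shown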
UUG fidelity – modulators of yeast start codon fidelity, primary screen, whole organism, S. cerevisiae, single point, plate reader. S. cerevisiae UUG-firefly luciferase reporter, luminescence/redox ratio. activity score, % at 18.7 µM. 350,000 tested, 0.13% active;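 active means replicate mean at a twofold rise or more, about +100% in these data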;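 further: firefly luciferase made from a UUG start codon reports start codon fidelity; reporter light over untreated wells divided by growth signal over untreated wells; some hits fall short of that in this replicate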
CSC inhib – cancer stem cell viability inhibitors, primary screen, luminescence. inhibition, % at 7.5 µM. 300,000 tested, 1.1% active. cancer stem cell-like cells viability;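 active means mean at 75% or more and at least half the replicates too; tested in HMLE shEcad cells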;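 further: 0% = median of negative and 100% = median of positive control wells; the first replicate is given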
eIF4H FP inh – human eIF4H binding inhibitors, primary screen, translation initiation inhibitor project, biochemical, uHTS, fluorescence polarization; eIF4H fluorescence polarization binding assay; inhibition, % at 35 µM; 290,000 tested, 0.94% active; AID 2012, 2009;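 active means 50% or more with normal probe brightness, or confirmed in later tests; about a fifth of its hits are not listed in these tables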;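 further: calls also rest on retests at 20 µM and on dose response follow-up; 0% = protein and probe with vehicle and 100% = probe without protein; strong numbers were not always called active; many hits fall short of the cut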
MT1-MMP act inh – blockers of MT1-MMP proenzyme processing, primary screen, HT1080 RFP-PRO-GFP cells, GFP/RFP fluorescence. Matrix metalloproteinase-14 (Homo sapiens), P50281. GFP/RFP ratio fluorescence, overnight; percent of plate control window, DMSO zero. GFP/RFP ratio change, % at 20 µM. 360,000 tested, 0.061% active;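 active means GFP/RFP ratio change of at least 30% with cell ATP level not reduced by more than half and red fluorescence within 50% of control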; further: strong numbers were not always called active
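Assay system: RFP-PRO-GFP reporter HT1080 cells; read-out basis: GFP/RFP fluorescence ratio; benchmarks: DMSO wells and RFP-L50D-GFP cells; doses: 20 µM single dose, 1% DMSO; schedule: overnight cell settling, then overnight compound exposure, 37 °C, 5% CO2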
Rce1 inhib – yeast Rce1p protease inhibitors, primary screen, biochemical, fluorescence, cell-free homogeneous; CAAX prenyl protease 2 (Saccharomyces cerevisiae (strain ATCC 204508 / S288c)), Q03530; yeast membranes, quenched prenylated peptide cleavage fluorescence; calls only; 290,000 tested, 0.27% active;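 active means fall in fluorescence gain of 50% or more versus controls, with final raw signal at or below 3038400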;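 further: plate controls were neutral control wells for no effect and wells lacking membranes for full effect; tested at 10 µM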
Target sequence (Q03530 whole entry, looked up): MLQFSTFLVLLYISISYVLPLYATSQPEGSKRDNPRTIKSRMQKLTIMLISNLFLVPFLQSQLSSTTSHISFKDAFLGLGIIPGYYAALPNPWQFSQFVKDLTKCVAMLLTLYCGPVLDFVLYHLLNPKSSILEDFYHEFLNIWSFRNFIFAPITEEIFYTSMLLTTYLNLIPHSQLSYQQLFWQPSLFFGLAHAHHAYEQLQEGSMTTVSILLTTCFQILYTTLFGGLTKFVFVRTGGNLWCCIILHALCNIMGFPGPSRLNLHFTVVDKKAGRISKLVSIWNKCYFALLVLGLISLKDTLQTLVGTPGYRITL
PABP polyA inh – PABP poly(A) RNA binding inhibitors, primary screen, biochemical, fluorescence polarization, uHTS. Polyadenylate-binding protein 1 (Homo sapiens), P11940. inhibition, % at 35 µM. 290,000 tested, 1% active. AID 2014, 2009;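 active means 50% or more with normal probe brightness, or confirmed in later tests; about a fifth of its hits are not listed in these tables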;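 further: calls also rest on retests at 20 µM and on dose response follow-up; controls were probe without protein and protein plus probe with vehicle; some compounds called inactive have numbers as strong as hits; many hits fall short of the cut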
Target sequence (P11940 whole entry, looked up): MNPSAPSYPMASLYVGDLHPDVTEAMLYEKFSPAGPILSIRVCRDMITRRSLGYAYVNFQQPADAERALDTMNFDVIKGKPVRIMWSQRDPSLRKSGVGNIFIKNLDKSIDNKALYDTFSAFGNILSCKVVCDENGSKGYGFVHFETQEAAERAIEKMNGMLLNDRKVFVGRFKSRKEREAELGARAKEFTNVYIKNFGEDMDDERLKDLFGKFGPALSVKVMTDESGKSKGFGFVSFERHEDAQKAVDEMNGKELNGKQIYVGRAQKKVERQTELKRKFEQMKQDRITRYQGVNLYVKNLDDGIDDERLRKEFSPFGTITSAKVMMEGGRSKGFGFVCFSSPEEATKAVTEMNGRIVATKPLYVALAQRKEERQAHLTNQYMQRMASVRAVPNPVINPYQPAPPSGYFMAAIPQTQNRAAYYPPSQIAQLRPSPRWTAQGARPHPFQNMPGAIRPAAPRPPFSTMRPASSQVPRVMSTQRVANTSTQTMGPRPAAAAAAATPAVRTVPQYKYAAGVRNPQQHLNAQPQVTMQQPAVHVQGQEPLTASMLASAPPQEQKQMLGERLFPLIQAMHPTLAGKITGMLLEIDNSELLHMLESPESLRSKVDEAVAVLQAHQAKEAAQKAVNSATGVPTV
MT1-MMP act inh RFP – also measured in MT1-MMP act inh; calls as there; RFP signal change, %; measured here: RFP expression control read;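 0 = vehicle wells; hits needed this value within 50% of zero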
Numbers without * were called inactive; i = inactive; nt = no result given; & = joins results of further samples. Hits appear at their usual frequency (roughly 3% active in at least one column).

canonical_smiles	eIF4H FP inh	MT1-MMP act inh RFP	HIV Env fusion	PABP polyA inh	CSC inhib	UUG fidelity	Rce1 inhib	MT1-MMP act inh
O=C(c1cc2ccccc2oc1=O)N(Cc1ccco1)CC1CCCO1 (stereo not drawn)	2.6	-2.3	-57.2	9.9	4.2	-21.1	i	-5.1
O=C(NNc1c2ccccc2nc2ccccc12)C12CC3CC(CC(C3)C1)C2	4.1	3.8	13.6	-1.1	6.0	3.0	i	2.8
O=C1C(NS(=O)(=O)c2cccs2)=C(N2CCN(c3cccc(C(F)(F)F)c3)CC2)C(=O)c2ccccc21	13.0	-3.9	nt	39.1	36.5	-2.5	i	2.7
CCS(=O)(=O)c1ccc2c(c1)N(S(=O)(=O)c1cccs1)CC(C(=O)O)O2 (stereo not drawn)	-7.2	1.0	5.9	1.7	-3.5	-13.2	i	-0.8
CCCCNC(=O)OCCSCCS(=O)(=O)c1ccc(Cl)cc1	-6.6	-5.5	20.2	-1.9	-3.3	nt	i	2.9
Cc1cccc(OCCn2ccnc2)c1	-12.4	-1.0	1.7	-5.6	-2.7	-8.0	i	-0.5
COc1cccc(C(=O)Nc2ccc(-c3nc4ccccc4o3)c(O)c2)c1	11.7	-3.0	nt	1.5	22.2	-18.8	i	4.6
CCCCOc1ccc(C(=O)N/N=C/c2ccc(OCCN3CCCCC3)c(OC)c2)cc1	-2.4	4.2	nt	16.2	18.8	-6.2	i	5.1
CCOC(=O)Cc1csc(NC(=O)c2cccc(Cl)c2)n1	nt	-11.8	-181.7	nt	5.1	-3.8	i	2.7
CCn1c(SCC(=O)Nc2ccc(Br)cc2)nc2sc3c(c2c1=O)CCN(C)C3	-9.3	-6.0	-0.6	-11.3	-7.1	-11.9	i	1.8
COc1ccccc1OCC(=O)Nc1nc2c(s1)CCCC2	-1.5	7.5	-11.4	5.7	nt	-4.2	i	9.0
COc1cc(C(C2C(=O)CC(C)(C)CC2=O)C2C(=O)CC(C)(C)CC2=O)ccc1OC(C)=O	nt	-1.3	0.1	nt	-7.6	nt	i	3.1
COc1ccccc1CNC(=O)c1cc(-c2ccccc2)nn1CC1CC(c2cccnc2)=NO1 (stereo not drawn)	nt	-1.2	6.2	nt	-8.6	-15.2	i	0.0
COc1ccc(S(=O)(=O)N(C)C[C@H]2OCc3cn(nn3)CCCC(=O)N([C@@H](C)CO)C[C@@H]2C)cc1	nt	5.5	9.9	nt	nt	-19.6&-11.7	nt	2.7
CS/C(=C\[N+](=O)[O-])Nc1ccc(F)cc1	-6.9	-3.1	nt	-2.8	-28.2	-12.3	i	1.3

Further entries follow.
canonical_smiles	eIF4H FP inh	MT1-MMP act inh RFP	HIV Env fusion	PABP polyA inh	CSC inhib	UUG fidelity	Rce1 inhib	MT1-MMP act inh
COc1ccc(NC(=O)C2CCN(C(=O)c3ccc(OC)cc3)CC2)cc1	-0.8	2.4	nt	6.6	nt	-5.2	i	-3.3
O=C(CSCc1ccc(Cl)cc1)NCC1CCCO1 (stereo not drawn)	-3.0	2.0	-33.2	-11.4	-13.0	-9.6	i	4.3
COc1cc(/C=N/NC(=O)c2cc(C)oc2C)ccc1O	4.5	1.8	22.7	-9.8	-23.3	-2.7	i	6.3
CCOc1ccc(-n2c(C)c(C(C)=O)c3cc(OCC(N)=O)ccc32)cc1	1.8	2.8	-6.4	-3.5	-16.8	nt	i	-0.4
O=C(NC1CCCc2ccccc21)c1cc(Cl)ccn1 (stereo not drawn)	-6.5	2.2	-3.8	-2.4	-2.6	nt	i	-2.2
Cc1cc2ncc(C(=O)N=CN(C)C)cn2n1	4.3	1.4	5.4	-8.6	-14.9	nt	i	-1.8
Nc1ccc(-c2nnc(-c3ccc(-c4ccccc4)cc3)o2)cc1	1.2	0.6	-137.0	4.4	nt	-13.7	i	4.7
COc1ccc(-n2nc3c(c2NC(=O)C2CC2)CS(=O)(=O)C3)cc1	-4.5	6.0	5.4	2.8	nt	-7.4	i	2.3
COc1ccc(CC(=O)Cc2ccc(OC)c(OC)c2)cc1OC	nt	-0.8	-1.9	nt	nt	-4.3	nt	5.4
COc1ccc(NC(=O)COC(=O)CCc2ccccc2)c(OC)c1	-3.0	2.9	-25.7	7.6	-2.5	1.6	i	-3.0
Cc1ccc(CSc2ccc(-c3ccc4c(c3)OCO4)nn2)cc1	0.6	1.9	-17.0	-2.5	79.0*	nt	i	0.1
O=S(=O)(Nc1ccccc1Cl)c1ccc2[nH]c(=S)oc2c1	-7.9	-3.0	28.9	2.8	-3.5	-12.2	i	-2.2
CC(C)(C)c1ccc(C(=O)NNc2ncccc2-n2cccc2)cc1	3.4	-0.5	21.8	0.1	1.0	-1.3	i	0.4
COC(=O)c1ccccc1NC(=O)Cn1c(CCC(=O)O)ccc1-c1cccs1	9.6	0.3	-12.1	2.2	-18.0	-17.9	i	-2.7
CN(C)S(=O)(=O)c1cccc(NC(=S)N/N=C/c2cc(Br)ccc2O)c1	12.4	-12.9	-64.2	17.3	76.8*	-14.1	i	-14.3

Carrying on:
canonical_smiles	eIF4H FP inh	MT1-MMP act inh RFP	HIV Env fusion	PABP polyA inh	CSC inhib	UUG fidelity	Rce1 inhib	MT1-MMP act inh
COc1ccc(CCNC(=O)c2ccc(Cl)cc2Cl)cc1	-5.7	-1.7	8.1	-1.8	-1.6	-14.8	i	0.6
Cn1c(=O)cc(OCCCC(=O)NC2CCCC2)c2ccccc21	-2.6	9.6	-55.8	-5.3	5.8	-4.1	i	8.0
Cc1cccc(C(=O)Nc2cc(Cl)ccc2-n2cncn2)c1[N+](=O)[O-]	nt	3.4	0.5	nt	-9.2	-9.3	i	0.9
CS(=O)(=O)N(CC(=O)N1CCCCCC1)c1ccc(Cl)cc1	-3.0	1.7	-34.1	16.9	-5.6	1.8	i	-3.3
CC1CCN(c2ccc(NC(=S)NC(=O)c3ccco3)cc2)CC1	-3.7	-12.9	nt	-3.4	11.5	-21.7	i	1.5
Cc1cc(NC(=O)c2ccc3c(c2)OCO3)ccc1NC(=O)c1ccco1	3.2	4.6	nt	4.6	20.4	-12.0	i	8.8
CCCC(C)NC(=O)C1CCN(C(=O)C2CC(=O)N(c3ccc(C)cc3)C2)CC1 (stereo not drawn)	1.5	-2.2	4.7	-2.3	nt	1.4	i	-0.8
COC(=O)CSc1nc2sc3c(c2c(=O)[nH]1)CCC3	15.1	3.3	-1.2	12.1	3.2	nt	i	4.3
COc1ccc(OC)c(C(=O)COC(=O)C2CC3CCCC(C2)C3=O)c1 (stereo not drawn)	-3.0	3.2	nt	-8.6	-15.2	9.8	i	3.3
Cc1cc(=O)oc2cc(OCC(=O)c3ccccc3)ccc12	-2.0	1.0	-10.1	2.2	4.4	9.1	i	-2.8
Cc1ccccc1S(=O)(=O)Cc1ccc(C(=O)N2CCN(C3CCCCC3)CC2)o1	-3.2	4.0	8.3	-7.0	-22.1	-2.3	i	-3.9
CC1CCCCN1c1cc(C#N)c(C#N)cc1[N+](=O)[O-] (stereo not drawn)	3.8	-2.1	nt	-5.5	81.3*	-15.1	i	13.7
O=C1CC(c2ccc(Cl)cc2)SC(N(c2ccccc2)c2ccccc2)=N1 (stereo not drawn)	-7.0	2.2	16.1	-6.0	8.4	nt	i	-1.4
Cc1ccc(N2C(=O)c3cccc4c(Oc5ccccc5[N+](=O)[O-])ccc(c34)C2=O)c(C)c1	33.7	-26.0	49.7	5.7	3.4	nt	i	-123.5
O=[N+]([O-])c1ccccc1N/N=C/c1ccc2c(c1)OCO2	3.6	-0.1	-67.6	5.1	nt	-5.5	i	6.0

Three compounds out of the list, arranged by SMILES length, rising:
canonical_smiles	eIF4H FP inh	MT1-MMP act inh RFP	HIV Env fusion	PABP polyA inh	CSC inhib	UUG fidelity	Rce1 inhib	MT1-MMP act inh
CC1CCN(c2ccc(NC(=S)NC(=O)c3ccco3)cc2)CC1	-3.7	-12.9	nt	-3.4	11.5	-21.7	i	1.5
COc1ccc(OC)c(C(=O)COC(=O)C2CC3CCCC(C2)C3=O)c1 (stereo not drawn)	-3.0	3.2	nt	-8.6	-15.2	9.8	i	3.3
CCCC(C)NC(=O)C1CCN(C(=O)C2CC(=O)N(c3ccc(C)cc3)C2)CC1 (stereo not drawn)	1.5	-2.2	4.7	-2.3	nt	1.4	i	-0.8

The list goes on:
canonical_smiles	eIF4H FP inh	MT1-MMP act inh RFP	HIV Env fusion	PABP polyA inh	CSC inhib	UUG fidelity	Rce1 inhib	MT1-MMP act inh
Cc1cc(C)nc(NC(=O)c2cc([N+](=O)[O-])cc([N+](=O)[O-])c2)n1	4.7	0.1	-4.6	3.9	3.8	nt	i	1.9
N/C(=N\N=C\c1ccc([N+](=O)[O-])cc1)c1nonc1N	-15.9	0.4	i	-1.2	-10.1	-21.0	i	3.9
O=C(Nc1cccc(Cl)c1)OCc1cnc(Cl)s1	-1.7	-1.9	nt	6.1	-7.6	-20.6	i	-0.7
Cc1cc(C)c2c(=O)n(CC(=O)NCCCN3CCOCC3)sc2n1	-0.7	2.9	nt	3.4	-7.5	17.6	i	13.3
O=C(Cn1c(=O)n(CCCCC(=O)NC2CCCC2)c(=O)c2ccccc21)NCCC1=CCCCC1	5.6	0.2	-78.6	-2.0	-20.6	-8.4	i	4.4
O=C(NC(c1ccccc1)c1ccsc1)C1CCN(Cc2ccccc2)CC1 (stereo not drawn)	nt	3.7	2.2	nt	nt	-7.2	nt	1.9
CCC(CC)c1nnc(NC(=O)c2c(C)nn(Cc3ccccc3Cl)c2C)s1	-8.0	-5.5	nt	-4.0	-3.2	nt	i	3.1
CCOCCc1nnc(NC(=O)CS(=O)(=O)c2ccc(C)cc2)s1	-4.1	3.8	4.2	0.6	-7.3	-9.1	i	0.9
CN(CC(=O)N1CCN(Cc2ccccc2)CC1)S(=O)(=O)c1ccc(Br)cc1	-1.9	nt	nt	-8.8	9.3	-1.1	i	nt
Cc1cc(C)cc(CC2CC(=O)N(c3ccc4c(c3)OCCO4)C2=O)c1 (stereo not drawn)	-1.4	-0.6	nt	1.8	-6.0	1.8	i	0.0
O=C1/C(=C/c2ccncc2)CCc2ccccc21	4.3	-0.2	16.0	30.6	-5.3	nt	i	1.4
CCOC(=O)C1CCCN(CCc2ccccc2)C1 (stereo not drawn)	10.7	0.2	0.1	1.4	0.4	-1.5	i	0.9
c1cncc(-c2nnc(C3CCCCC3)o2)c1	-11.7	-1.3	0.5	-2.1	-13.8	-10.2	i	-2.4
CC(C)c1ccc(NC2CCCN(C(=O)c3n[nH]c4c3CCC4)C2)cc1 (stereo not drawn)	-6.0	-27.9	16.3	-4.6	-5.8	-23.1	i	-1.1
Cc1ccc(Nc2cc(C)nc3ncnn23)cc1	-1.9	3.0	5.2	-6.2	3.9	-23.7	i	-2.5
